Screens deposited in PubChem BioAssay by National Center for Advancing Translational Sciences (NCATS).
Cruzain inh Det: blocks cruzain activity in presence of Triton detergent | purified cruzain, Z-FR-AMC fluorescence, 0.01% Triton | Potency, µM, for inactives: max response, negative = inhibition, usual class: inhibitors | 200,000 compounds, 0.43% hits | AID 1478;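 further: plate controls were neutral wells for no effect and buffer without enzyme for full effect; nearly all actives have a fitted effect of over 40% in size; top concentration of the series not given in the record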
Target sequence (P25779 123-467 limits assumed): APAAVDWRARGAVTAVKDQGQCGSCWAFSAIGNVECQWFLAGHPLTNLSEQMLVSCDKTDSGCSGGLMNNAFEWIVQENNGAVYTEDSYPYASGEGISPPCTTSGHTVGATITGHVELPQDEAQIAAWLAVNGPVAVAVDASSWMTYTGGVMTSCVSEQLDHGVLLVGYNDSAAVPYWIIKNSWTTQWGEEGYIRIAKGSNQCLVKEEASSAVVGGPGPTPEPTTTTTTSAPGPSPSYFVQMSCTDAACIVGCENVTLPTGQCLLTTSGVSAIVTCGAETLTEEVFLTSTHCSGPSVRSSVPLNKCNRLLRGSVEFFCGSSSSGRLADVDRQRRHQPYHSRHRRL
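Sodium acetate buffer (100 mM, pH 5.5) containing 5 mM DTT and 0.01% Triton X-100 hosted 1.5 nM cruzain and test compound for 15 min at room temperature. Cleavage of 2 uM Z-FR-AMC was then tracked by fluorescence.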
SARS PLP yeast: SARS-CoV PLP inhibition in yeast; AID 485353; Potency, µM (titrated, usually from 32.9 µM), inactives show at the top dose activity, positive = growth rescue; S. cerevisiae expressing SARS-CoV PLpro, growth rescue; control for the full effect not named in the record; 330,000 compounds, 0.19% hits; active means well fitted rising curve with a large enough effect; inconclusive means small, poorly fitted or top-dose-only effect; inactive means no such curve, though single readings can be large or run the other way; further: 0% is about no effect; nearly all actives have a fitted effect of over 55% in size; growth read by luminescence after 48 h
Marburg entry inh: blocks Marburg virus binding to or entry into cells; 300,000 compounds, 1.8% hits; Marburg virus pseudotyped entry inhibition, cell reporter; control for the full effect not named in the record; about a third of the inactives were read at about 46 µM; AID 540276; Potency, µM (series often up to 37.8 µM), for inactives: at the top dose activity change, negative = inhibition, usual class: inhibitors; active = well fitted inhibition curve with a large enough effect; inconclusive = small, poorly fitted or top-dose-only effect, or effect the other way; inactive = flat fitted curve, though single readings scatter; tested in HEK293 cells; about a fifth of its hits are not listed in these tables; further: on the % scale 0 is the no-effect control and ±100 the full control effect; luciferase read-out
Lassa entry inh: inhibitors of Lassa virus binding or cell entry; Potency, µM (top dose mostly 37.9 µM), inactives show at the top dose activity change, negative = inhibition, actives largely listed as inhibitors; 300,000 compounds, 1.2% hits; Lassa virus pseudotype entry inhibition, cell reporter; control for the full effect not named in the record; active means well fitted inhibition curve with a large enough effect; inconclusive means small, poorly fitted or top-dose-only effect, or effect the other way; inactive means flat fitted curve, though single readings scatter; tested in HEK293 cells; further: on the % scale 0 is the no-effect control and ±100 the full control effect; nearly all actives have a fitted effect of over 50% in size; luciferase read-out
StopGo reporter: FMDV 2A StopGo reporter, luciferase signal. human cells with a luciferase reporter of 2A StopGo recoding; control for the full effect not named in the record. 410,000 compounds, 1.2% hits. Potency, µM (titrated, usually from 57.9 µM), for the others: at the highest dose signal change, negative = less light; active = well fitted falling curve with a large enough effect; inconclusive = small, poorly fitted or top-dose-only effect; inactive = no such curve, though single readings can be large or run the other way; tested in HEK293T cells; further: on the % scale 0 is the no-effect control and ±100 the full control effect; nearly all actives have a fitted effect of over 45% in size; luciferase light after 4 h
Cruzain noTriton: blocks cruzain activity in detergent-free assay. purified cruzain, Z-FR-AMC fluorescence, no detergent. AID 1476. Potency, µM, for inactives: max response, negative = inhibition, most hits filed as inhibitors. 200,000 compounds, 2.3% hits;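 further: plate controls were enzyme without inhibitor for no effect and buffer without enzyme for full effect; nearly all actives have a fitted effect of over 40% in size; top concentration of the series not given in the record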
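Purified cruzain at 1.5 nM, pre-incubated 15 min with compound at room temperature in 100 mM sodium acetate pH 5.5, 5 mM DTT, 0.00005% Triton X-100. Reaction started with 2 uM Z-FR-AMC; AMC fluorescence increase over 60 s gives rate.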
NS1 function inh: blocks influenza NS1 protein function | Potency, µM (highest dose often 46.1 µM), for inactives: at the top dose activity, positive = more growth | S. cerevisiae slowed by influenza A NS1, growth recovery by OD600 | AID 2326 | 270,000 compounds, 0.4% hits; active means well fitted rising curve with a large enough effect; inconclusive means small, poorly fitted or top-dose-only effect; inactive means no such curve, though single readings can be large or run the other way; further: nearly all actives have a fitted effect of over 50% in size
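S. cerevisiae expressing influenza A NS1, grown in glucose, washed, then diluted 1:100 into pH 6.0 -URA galactose medium with 23 nl compound. Growth recovery read as OD600; NS1-free strain serves as control.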
RE007 growth inh: less growth of the S. pombe RE007 Vpr strain; S. pombe RE007 Vpr strain, BacTiter-Glo ATP luminescence, 24 h; control for the full effect not named in the record; Potency, µM (series often up to 92.2 µM), for inactives: at the highest dose activity change, negative = less growth; 360,000 compounds, 0.21% hits; AID 651644; active = well fitted falling curve with a large enough effect; inconclusive = small, poorly fitted or top-dose-only effect; inactive = no such curve, though single readings can be large or run the other way;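 further: on the % scale 0 is the no-effect control and ±100 the full control effect; nearly all actives have a fitted effect of over 50% in size; the assay follows cell death caused by Vpr and the record does not say whether a fall means rescue or toxicity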
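Fission yeast strain RE007, carrying one chromosomally integrated HIV-1 vpr copy, was seeded at OD 0.01 in PMG+AL medium with 23 nL pinned compound. After 24 h at 30 °C and 99% humidity, viability was read by BacTiter-Glo luminescence.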
* = called active by the depositor; ? = inconclusive; . = not tested or not shown; & = joins results of further samples; [ ] = another dose, or the depositor's remark. Unless noted, the call rests on the fitted dose curve; in most records, active means well fitted curve in the direction sought with a large enough effect; inconclusive means small, poorly fitted or top-dose-only effect, or another doubt; inactive means no such curve, though single readings can be large; an effect the other way counts as inactive or inconclusive. Potency means the concentration at half of the fitted maximal effect. No enrichment for hits, and some 4.7% of all compounds hit somewhere here.

SMILES	Cruzain inh Det	SARS PLP yeast	Marburg entry inh	Lassa entry inh	StopGo reporter	Cruzain noTriton	NS1 function inh	RE007 growth inh
CCc1ccc(NC(=O)C2CCCN(S(=O)(=O)c3c(C)noc3/C=C/N(C)C)C2)cc1 (stereo not given)	-10%	.	-5%[46.1 µM]	9%[46.1 µM]	0%	-2%	.	.
COc1cccc(NC(=O)CN(C)C(C)C(=O)Nc2ccc(C#N)cc2)c1 (stereo not given)	.	2%	-3%[46.1 µM]	.	-27%	.	.	-6%
O=c1oc2ccccc2c(O)c1/C=C1\C=Nc2ccccc21	0.6%	-33%	7%	19%	?	-9%	-135%	?
CCOc1ccc(NC(=O)Cn2c(=O)oc3cc(Cl)ccc32)cc1	.	1%	.	.	-3%	.	-6%	-3%
CCn1cc(CN2CCc3c([nH]c4ccccc34)C2c2cccc(OC)c2)c(C)n1 (stereo not given)	.	0%	?	-28%	-12%	.	-4%	-10%
C=CCOc1cccc(C2NC(=O)c3ccccc3O2)c1 (stereo not given)	.	-7%	16%[46.1 µM]	15%[46.1 µM]	15%	.	-8%	3%
Cc1ccc(C(=O)N2CCN(C(=O)c3ccco3)CC2)cc1NC(=O)c1ccco1	.	2%	-1%[46.1 µM]	0%[46.1 µM]	-23%	.	4%	8%
CNC(=O)C(C)NS(=O)(=O)c1ccc(F)cc1 (stereo not given)	6.5%	5%	?	19%	5%	1%	8%	9%
Cc1cc(O)c(C(C[N+](=O)[O-])c2ccc(Cl)cc2Cl)c(=O)o1 (stereo not given)	-6.8%	-15%	18%	0%	10%	1%	-45%	-10%
COc1ccc(NC(=O)CN2CCc3ccccc3C2)cc1OC	.	-4%	21%[46.1 µM]	-3%	11%	.	.	-3%
Cc1cccc(S(=O)(=O)NNC(=O)Cc2cccn2C)c1	.	0%	14%[46.1 µM]	8%	27%	.	.	-6%
CC1C2CC(C(S(=O)(=O)N3CCOCC3)C2=O)C1(C)C (stereo not given)	3.6%	-3%	9%&9%	14%	-24%	-3%	-10%	11%
Cc1ccc(S(=O)(=O)N2CCCCC2CCNC(=O)C(=O)NC2CC2)cc1 (stereo not given)	.	-7%	-6%	7%	5%	.	.	23%
CCOc1ccc(NC(=O)CCS(=O)(=O)c2ccc3c(c2)CCCN3C(=O)CC)cc1	1.5%	8%	15%	-16%	-25%	-5%	-2%	10%
Cc1ccc(S(=O)(=O)NCCN=C(CN2CCOCC2)NS(=O)(=O)c2ccc(C)cc2)cc1	7.4%	0%	-3%&3%	-12%	60%[activator]	?	-8%	-1%
Cc1cc([N+](=O)[O-])nn1CC(=O)Nc1ccc(F)cc1	.	1%	-6%	-1%	6%	.	3%	8%
O=C(O)c1ccc(/C=N/NC(=O)C(O)(c2ccccc2)c2ccccc2)cc1	.	-2%	-1%[46.1 µM]	6%[46.1 µM]	-6%	.	12%	10%
CC(=O)Nc1cccc(NC(=S)Nc2cccc3ccccc23)c1	.	-6%	.	.	30%	.	6%	-11%
Cc1oc(-c2ccccc2F)nc1CS(=O)CC(=O)NCCN1CCCCC1C (stereo not given)	.	9%	.	.	3%	.	-11%	-14%
CCNS(=O)(=O)c1ccc(CCC(=O)NCCC2=CCCCC2)cc1	-3.2%	-6%	?	-2%	-8%	-3%	-5%	1%
CC(C)N1C(=O)C2C(C(=O)NC3CCCCC3)C3C=CC2(O3)C1C(=O)NC1CCCCC1 (stereo not given)	0.6%	-4%	4%&4%	14%	10%	1%	-9%	-7%
CCOP(=O)(C#CC(C)(C)C)C(C)(O)c1ccccc1 (stereo not given)	3.1%	7%	16%[46.1 µM]	17%	0%	22%	-1%	-2%
CC1(C)CC2(CCO1)OC(=O)CC2C(=O)NCc1ccccc1 (stereo not given)	1.8%	4%	14%	0%	6%	6%	-4%	4%
C=CCOc1nc2c(c(=O)n(C)c(=O)n2C)n1Cc1ccccc1Cl	2.0%	0%	-16%&-16%	?	?	22%	-6%	2%
CCCCCCCCCCCCCCCC(=O)OC[C@H](COP(=O)([O-])OCC[N+](C)(C)C)OC(=O)CCCCCCCCCCCCCCC	2.5%	-1%	16%	0%	.	-8%	-8%	.
More results:
SMILES	Cruzain inh Det	SARS PLP yeast	Marburg entry inh	Lassa entry inh	StopGo reporter	Cruzain noTriton	NS1 function inh	RE007 growth inh
Cc1ccc(C(=O)N/C(=C\c2cccs2)C(=O)NCCc2c[nH]c3ccccc23)cc1	-8.9%	13%	?	1%	-6%	11%	9%	9%
COc1ccc(-c2nnc(SCC(C)C)o2)cc1	.	-1%	?	?	29%	.	-4%	4%
CN(C)c1ccc(C=NCC2(O)CCOC(C)(C)C2)cc1 (stereo not given)	-2.8%	-6%	-8%	-5%	21%	-4%	-39%	17%
CCCCOC(=O)c1ccc(NC(=O)c2c(OC)cccc2OC)cc1	.	-12%	2%	?	-27%	.	0%	15%
NS(=O)(=O)c1ccc(CCNC(=O)c2ccccc2OCc2ccc(F)cc2)cc1	.	1%	-13%[46.1 µM]	0%[46.1 µM]	-4%	.	5%	5%
CC(=O)Nc1ccc(NC(=O)CSc2nnnn2-c2ccccc2F)cc1	.	-4%	.	.	35%[activator]	.	-4%	-1%
CCN(CC)S(=O)(=O)c1cc(OC)c(Cl)cc1OC	.	-1%	16%[46.1 µM]	-11%	-4%	.	-4%	-3%
O=C(c1cnc(-c2ccccc2)s1)c1ccc(Cl)cc1Cl	-0.3%	-2%	-3%	4%	19%	3%	-20%	-15%
O=C(CCc1ccc(S(=O)(=O)NC2CCCCC2)cc1)Nc1ccccc1	-1.9%	1%	-8%	6%	15%	-5%	-1%	2%
Cc1cccc(NC(=O)c2cc(-c3c(C)cc(C)cc3O)n[nH]2)c1	.	0%	10%[46.1 µM]	7%[46.1 µM]	26%	.	5%	3%
Cc1ccc(CC(=O)N2CCN(c3ccc([N+](=O)[O-])cc3)CC2)cc1	.	-1%	?	-5%[46.1 µM]	-27%	.	9%	?
CCOC(=O)CN(Cc1ccccc1)C(C(=O)NC1CCCCC1)c1ccc(OC)cc1 (stereo not given)	-0.9%	.	-17%[46.1 µM]	12%[46.1 µM]	-6%	-8%	.	.
COc1ccccc1N1CCN(C2CCCN(C(=O)C3=NN(C)C(=O)CC3)C2)CC1 (stereo not given)	.	-1%	-9%[46.1 µM]	1%[46.1 µM]	-10%	.	-8%	12%
CC(C)N(NC(=O)c1cccc2ccccc12)C(C)C	.	-3%	?	4%	20%	.	.	-4%
Cc1[nH]c2ccccc2c1/C=N/NC(=O)CNC(=O)COc1ccccc1	.	-2%	?	?	-12%	.	.	3%
CCN1CCN(C(=O)Nc2ccc(Cc3ccc(NC(=O)N4CCN(CC)CC4)cc3)cc2)CC1	0.8%	-1%	?	-12%	-7%	11%	-2%	1%
COc1ccc(C2C(C(=O)Nc3ccc(C)cc3C)=C(C)Nc3nc(SC)nn32)cc1OC (stereo not given)	-0.4%	.	?	?	-11%	-4%	.	.
NC(=O)c1ccc(NC(=O)COC(=O)/C=C/c2cn(-c3ccccc3)nc2-c2cccnc2)cc1	-9.7%	?	-21%	-19%	-4%	?	14%	.
CCOc1ccc(Sc2cc(C(=O)NCCc3ccccc3)c3ccccc3n2)cc1	0.9%	.	.	0%[46.1 µM]	-17%	-16%	.	.
COc1cccc(NC(=O)NCc2ccc3c(c2)CCN3C(=O)c2ccccc2)c1	-3.5%	.	.	-26%[46.1 µM]	-11%	-24%	.	.
COC(=O)Cc1csc(Nc2ccccc2)n1	0.2%	-11%	0%	?	25%	8%	-4%	-4%
O=C(Nc1ccc(C(F)(F)F)cc1)C1CC(=O)N(c2ccc3c(c2)OCCO3)C1 (stereo not given)	-3.3%	-2%	?	-2%	-1%	-3%	-6%	8%
O=C(CSc1oc(-c2ccc(F)cc2)nc1S(=O)(=O)c1ccccc1)NC1CCCCC1	-1.4%	.	13%[46.1 µM]	?	-6%	-2%	.	.
NNC(=S)Nc1c(F)cc(F)cc1Br	.	-1%	8%[46.1 µM]	?	1%	.	2%	-1%
CCN(CC)S(=O)(=O)c1ccc(N2CCOCC2)c(NC(=O)c2cc3ccccc3oc2=O)c1	.	0%	-27%[46.1 µM]	?	0%	.	12%	-16%
Remaining list, next part.
SMILES	Cruzain inh Det	SARS PLP yeast	Marburg entry inh	Lassa entry inh	StopGo reporter	Cruzain noTriton	NS1 function inh	RE007 growth inh
CN1CCN(c2ccc([N+](=O)[O-])c3cccnc23)CC1	-0.5%	0%	1%	-4%	-10%	-5%	?	-14%
CC(NC(=O)c1ccc(CS(=O)(=O)c2ccc(Cl)cc2)o1)c1ccc2c(c1)OCCO2 (stereo not given)	-1.2%	6%	-25%	-18%	?	-5%	5%	0%
Cc1ccc(S(=O)(=O)N2CCN(C(=O)c3c(-c4ccccc4)noc3C)CC2)cc1C	.	0%	-24%[46.1 µM]	?	?	.	-3%	12%
CSc1cccc(NS(=O)(=O)c2ccc(C(C)=O)cc2)c1	.	0%	?	?	11%	.	3%	-11%
CCOc1ccccc1N(C)C(=O)c1cn(C)c(=O)c2ccccc12	.	-1%	?	-1%	-16%	.	2%	-5%
COc1ccc(/C=C(\C#N)c2nc(-c3cc4c(ccc5ccccc54)oc3=O)cs2)cc1O	-1.3%	.	.	3%[46.1 µM]	-5%	-22%	.	.
O=C(OCc1ccccc1)N1CCCC1/C=C/CN1CCOCC1 (stereo not given)	.	3%	14%[46.1 µM]	?	-2%	.	.	1%
COc1c2ccoc2c(OCC=C(C)C)c2oc(=O)ccc12	-2.7%	6%	31%	0%	10%	0%	-50%	0%
CC1CC(c2ccccc2)=Nc2ccccc2N1 (stereo not given)	.	-3%	3%	-1%	50%[activator]	.	-2%	-22%
O=[N+]([O-])c1ccccc1SNc1ccc(Br)cn1	.	0%	0%[46.1 µM]	-1%[46.1 µM]	-2%	.	.	15%
CCCCNC(=O)CN1CCN(c2ccc(NC(=O)c3ccc(OC)cc3)cc2C(=O)O)CC1	2.1%	.	.	16%[46.1 µM]	8%	-2%	.	.
O=C(Nc1ccc2nc3n(c(=O)c2c1)CCCCC3)C(=O)N1CCN(c2ccccc2F)CC1	.	4%	0%[46.1 µM]	-24%[46.1 µM]	4%	.	7%	6%
